Assay outcomes deposited in PubChem by Southern Research Institute.
Mtb growth: Mycobacterium tuberculosis H37Rv growth inhibition, putative kinase inhibitor library, confirmatory dose response (AID 2842) | M. tuberculosis H37Rv growth inhibition; higher % means a stronger effect; some inactives read as strong as hits | inhibition, % at 10 µg/mL; hits with a dose series show IC90 in µg/mL | 5.2% of 24,000 active;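 active means confirmed in a dose series; about a fifth of its hits are not listed in these tables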;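 further: bacteria incubated one week before Alamar blue readout; 0% = bacteria only wells and 100% = bacteria with high antibiotic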
* hit, by the source's call. This is a subset (hit frequency here may not be typical).

SMILES	Mtb growth
COc1ccc(NC(=O)CSc2nc3c(c(=O)n2C)SC(C)C3)cc1 (configuration not stated)	-3%
COc1ccc(-c2nnc3ccc(SCC(=O)Nc4c(C)cc(C)cc4C)nn23)cc1	7%
CCc1ccc(NC(=O)c2oc3ccccc3c2NC(=O)CC(C)(C)C)cc1	12%
CCOC(=O)Nc1ccc2c(c1)C(=O)Nc1cc(C)ccc1O2	5%
O=C(O)CCCNc1ncnc2c1oc1ccccc12	0%
O=C(COc1ccc(Cl)cc1)Nc1ccc(-c2ccc3nncn3n2)cc1	-8%
O=C(c1cccs1)N(CCCn1ccnc1)c1nc2c(F)cc(F)cc2s1	2.4µg/mL*
CC1(C)CC(=O)c2sc(NC(=O)c3ccc(Cl)cc3Cl)nc2C1	21%
Cc1cc(SCc2ccc(Cl)cc2)nc(=O)[nH]1	3%
COc1ccc(S(=O)(=O)NC2CC(=O)N(c3ccc(C)cc3)C2)cc1C (configuration not stated)	-11%
N#C/C(=C\Nc1ccc(Cl)c(Cl)c1)c1nc2ccccc2[nH]1	-3%
CCOc1ccc2cc(C3CC(c4ccc(OC)cc4)=NN3)c(Cl)nc2c1 (configuration not stated)	-7%
CC(C)N1CCc2c(sc(NC(=O)CCSc3ccccc3)c2C#N)C1	-8%
CNC(=O)C(=O)Nc1cc2c3c(c1)CCN3C(=O)CC2	-5%
COc1cccc2c(=O)cc(C)n(CC(=O)Nc3cccc(C)c3)c12	11%
O=C(Nc1ccc2c3c(cccc13)C(=O)N2)c1ccc(Cl)cc1Cl	2%
CN(C)CCNC(=O)C(=O)Nc1cc2c3c(c1)CC(=O)N3CCC2	4%
Cc1ccc(S(=O)(=O)NCCCC(=O)NCc2ccco2)cc1	17%
Cn1c(=O)c2c(nc(N3CCOCC3)n2CCSc2nnnn2-c2ccccc2)n(C)c1=O	1%
CCc1nnc(NC(=O)CSc2ccc(-c3ccc4c(c3)OCO4)nn2)s1	-9%
Cc1cc(NC(=O)CN2CC3CC(C2)c2cccc(=O)n2C3)nc2c1c(=O)oc1ccccc12 (configuration not stated)	0%
Cc1c(Cc2ccccc2)c(=O)oc2cc(O)ccc12	-1%
Cc1cc(OC(=O)C(C)C)c([N+](=O)[O-])c(=O)[nH]1	7%
Cc1nc2ccccc2c(=O)n1-c1ccc(NS(C)(=O)=O)cc1	-3%
Cc1nc2sc(C(c3ccc(F)c(F)c3)N3CCC(C(N)=O)CC3)c(O)n2n1 (configuration not stated)	0%

Molecules listed so far with a carbonyl joined to an NH by a bond outside any ring:
SMILES	Mtb growth
COc1ccc(NC(=O)CSc2nc3c(c(=O)n2C)SC(C)C3)cc1 (configuration not stated)	-3%
COc1ccc(-c2nnc3ccc(SCC(=O)Nc4c(C)cc(C)cc4C)nn23)cc1	7%
CCc1ccc(NC(=O)c2oc3ccccc3c2NC(=O)CC(C)(C)C)cc1	12%
CCOC(=O)Nc1ccc2c(c1)C(=O)Nc1cc(C)ccc1O2	5%
O=C(COc1ccc(Cl)cc1)Nc1ccc(-c2ccc3nncn3n2)cc1	-8%
CC1(C)CC(=O)c2sc(NC(=O)c3ccc(Cl)cc3Cl)nc2C1	21%
CC(C)N1CCc2c(sc(NC(=O)CCSc3ccccc3)c2C#N)C1	-8%
CNC(=O)C(=O)Nc1cc2c3c(c1)CCN3C(=O)CC2	-5%
COc1cccc2c(=O)cc(C)n(CC(=O)Nc3cccc(C)c3)c12	11%
O=C(Nc1ccc2c3c(cccc13)C(=O)N2)c1ccc(Cl)cc1Cl	2%
CN(C)CCNC(=O)C(=O)Nc1cc2c3c(c1)CC(=O)N3CCC2	4%
Cc1ccc(S(=O)(=O)NCCCC(=O)NCc2ccco2)cc1	17%
CCc1nnc(NC(=O)CSc2ccc(-c3ccc4c(c3)OCO4)nn2)s1	-9%
Cc1cc(NC(=O)CN2CC3CC(C2)c2cccc(=O)n2C3)nc2c1c(=O)oc1ccccc12 (configuration not stated)	0%
Cc1nc2sc(C(c3ccc(F)c(F)c3)N3CCC(C(N)=O)CC3)c(O)n2n1 (configuration not stated)	0%

The listing continues:
SMILES	Mtb growth
CCOC(=O)c1sc(NC(=O)/C=C/c2ccco2)c(C(=O)OCC)c1C	-3%
CCOc1ccc(NC(=O)C2CCC(Cn3c(=O)[nH]c4ccsc4c3=O)CC2)cc1 (configuration not stated)	-3%
Cc1cc(C)cc(-n2nnc3c(=O)n(CC(=O)Nc4ccc5c(c4)OCO5)cnc32)c1	5%
CC1(C)CC(=O)c2sc(NC(=O)COc3ccc(Cl)cc3)nc2C1	91%
CC(=O)c1ccc(NC(=O)CSc2ccc3nnc(-c4ccncc4)n3n2)cc1	-2%
Cc1cccc(CSc2nnc3ccc(-c4ccncc4)nn23)c1	-11%
Cc1ccc2cc(CCNC(=O)CCC3CCCCC3)c(=O)[nH]c2c1C	3%
O=C1CCc2cc(NS(=O)(=O)c3ccccc3)cc3c2N1CC3	-8%
N#C/C(=C\c1ccc(-c2ccc([N+](=O)[O-])cc2Cl)o1)c1nc2ccccc2c(=O)[nH]1	-5%
CCCNC(=O)Cc1cc(=O)[nH]c(=O)[nH]1	-1%
O=C(CNC(=O)c1c(F)cccc1Cl)N/N=C/c1ccccc1Cl	-8%
Cc1ccc2c(c1)c1nnc(-c3ccc(F)cc3)c-1cn2Cc1ccc(F)cc1	27%
CN(C(=O)c1ccc(S(=O)(=O)N2CCCCC2)cc1)C1CCS(=O)(=O)C1 (configuration not stated)	-8%
O=C(Nc1nnc(-c2ccc(Cl)cc2)s1)C1CCCCC1	9%
CNc1nc(N)c([N+](=O)[O-])c(Nc2ccccc2)n1	-2%
COc1ccc(NC(=O)c2oc3ccccc3c2NC(=O)CC(C)(C)C)cc1	10%
O=C(O)Cn1c(O)c(/C=C2\C=NN=C2c2ccccc2)sc1=S	-6%
CCOc1ccc(C(=O)Nc2sc3c(c2C(N)=O)CC(C)(C)NC3(C)C)cc1	78%
COc1cccc(C(=O)Nc2nnc(-c3ccc(F)cc3)s2)c1	0%
Cn1c(=O)[nH]c(=O)c2c1nc(SCC(=O)c1ccc(Cl)cc1)n2CC(O)COc1ccc(Cl)cc1 (configuration not stated)	13%
O=C(Nc1cccc2c1C(=O)NC2=O)C1=COCCO1	-11%
Cc1ccc(Cn2nnc(C(=O)NCc3ccc(Cl)cc3)c2N)cc1	-10%
Cc1cc(N2CCOCC2)nc(SCC(=O)Nc2ccc(Cl)cc2Cl)n1	6%
CCCCSc1nc2c(c(=O)[nH]1)C(c1ccc(OC)cc1)C1=C(CCCC1=O)N2 (configuration not stated)	2%
CC(C)c1nnc(NC(=O)c2ccc(S(=O)(=O)N3CCOCC3)cc2)s1	3%
(further entries)
SMILES	Mtb growth
COc1ccc(OC)c2[nH]c(=O)c(CCNC(=O)c3cccc(C)c3)cc12	0%
COC(=O)c1ccc(NC(=O)c2cnc3n(c2=O)CCS3)cc1	-5%
CCCCn1c2c(c(=O)[nH]c1=O)C(c1ccc(Cl)cc1)C1=C(COC1=O)N2 (configuration not stated)	-8%
COc1cc(-c2nnc(NC(=O)CCc3ccccc3)o2)cc(OC)c1OC	0%
CCc1nnc(NC(=O)CSc2ccc3nnc(CCNC(=O)c4ccc(F)cc4)n3n2)s1	4%
CCOC(=O)C1=C(C)N=c2s/c(=C/c3cccnc3)c(=O)n2C1c1cccs1 (configuration not stated)	-18%
CCOCCn1c(SCCCc2ccccc2)nc2c1c(=O)[nH]c(=O)n2C	4%
O=C(Nc1nnc(-c2ccccc2Cl)o1)c1c(F)cccc1F	56%
CCOC(=O)C(=O)Nc1c(C(=O)OCC)oc2ccccc12	-2%
CCOc1ccc(Nc2cc(C)nc3c(-c4ccccc4)cnn23)cc1	1%
CCN(CC)CCn1c(C)cn2c3c(=O)[nH]c(=O)n(C)c3nc12	4%
O=C(COc1ccc(Cl)cc1Cl)Nc1nnc(-c2ccccc2)o1	30%
Clc1cc(Cl)c2nc(N3CCCCC3)sc2c1	5%
COc1ccc(CCNc2ncnc3sc4c(c23)CCCC4)cc1OC	17%
COc1ccc(N2CC(NS(C)(=O)=O)CC2=O)cc1 (configuration not stated)	-2%
COc1ccc2sc(Nc3ccc(Cl)cc3)nc2c1	12%
CC(C)Oc1ccc(C(=O)Nc2c3c(nn2-c2ccc(F)cc2)CS(=O)C3)cc1 (configuration not stated)	10%
Cc1ccc(NC(=O)CN2N=NC3C(=O)N(c4cccc(Cl)c4)C(=O)C32)cc1 (configuration not stated)	-2%
N#C/C(=C\c1ccco1)C(=O)Nc1ncc(Cc2ccc(Cl)c(Cl)c2)s1	7%
Cc1c(C(=S)Nc2ccccc2)cnn1-c1ccc([N+](=O)[O-])cc1	1%
O=C(CSc1ncnc2c1nnn2-c1ccc(F)cc1)NCc1ccco1	2%
Cc1ccc(Nc2nc(Nc3ccc(F)cc3)nc3nccnc23)c(C)c1	12%
CC(=O)N1CCCc2ccc(NC(=O)C(=O)NCc3cccnc3)cc21	3%
Cc1ccc(-n2c(=O)[nH]c3c(C(N)=O)nc(-c4ccc(C(F)(F)F)cc4)nc32)cc1C	-22%
O=C(Nc1cccc(NC(=O)c2cc3ccccc3oc2=O)c1)c1cc2ccccc2oc1=O	5%

Grouped by structure: the entries above with a nitro group on carbon
SMILES	Mtb growth
Cc1cc(OC(=O)C(C)C)c([N+](=O)[O-])c(=O)[nH]1	7%
N#C/C(=C\c1ccc(-c2ccc([N+](=O)[O-])cc2Cl)o1)c1nc2ccccc2c(=O)[nH]1	-5%
CNc1nc(N)c([N+](=O)[O-])c(Nc2ccccc2)n1	-2%
Cc1c(C(=S)Nc2ccccc2)cnn1-c1ccc([N+](=O)[O-])cc1	1%

Further records follow:
SMILES	Mtb growth
O=C(Cn1nnc2ccccc21)Nc1nc2ccccc2s1	-17%
Cc1ccc(C)c(NC(=O)CCN2C(=O)c3ccccc3S2(=O)=O)c1	-3%
CCC(C)Sc1nc2c(c(=O)[nH]1)C(c1cccnc1)C1=C(CCCC1=O)N2 (configuration not stated)	-7%
COc1nc(N)c(C#N)c(-c2ccccc2Cl)c1C#N	-6%
O=C(/C=C/c1cccs1)OCC(=O)c1ccc(F)cc1	-11%
N#C/C(=C(/O)CN1CCCCC1)c1nc2ccccc2[nH]1	-3%
COc1ccc(-c2n[nH]c(C)c2-c2cscn2)c(O)c1	-10%
Fc1cc(F)c2nc(N3CCCC3)sc2c1	18µg/mL*
CCc1cccc(OCC(=O)Nc2nncs2)c1	7%
COc1ccc(-n2c(=O)[nH]c3c(C(N)=O)nc(-c4ccco4)nc32)c(OC)c1	-20%
O=C(OCc1ccc2c(c1)OCO2)c1ccc2c(c1)OCO2	-19%
Cc1cc(C)cc(NC(=O)CSc2ncnc3c2oc2ccccc23)c1	1%
O=C1CCC(=O)N1c1cccc([N+](=O)[O-])c1	2%
COc1ccc(CCNC(=O)Cn2nnc3sc4c(c3c2=O)CCC(C(C)(C)C)C4)cc1OC (configuration not stated)	11%
CCC(SCC(=O)OC)C(=O)Nc1nnc(-c2ccc(Cl)cc2)s1 (configuration not stated)	-13%
CCc1nc(SCC(=O)Nc2cccc3ccccc23)c2c(=O)n(C)c(=O)n(C)c2n1	-3%
Cc1ccc(C(=O)Nc2cc3c4c(c2)CCN4C(=O)CC3)cc1C	25%
CSc1ccccc1-c1nnc(NC(=O)c2cc(Cl)ccc2Cl)o1	0.98µg/mL*
C=CCn1c(NCCCOC)nc2c1c(=O)[nH]c(=O)n2C	-13%
Cc1ccc(/C=C2/SC(=Nc3ccc(O)cc3)NC2=O)o1	-1%
Cc1c(C)n2c(SCC(=O)Nc3ccc(Cl)c(Cl)c3)nnc2[nH]c1=O	-14%
Cc1ccc2cc(CCNC(=O)c3cc4ccccc4o3)c(=O)[nH]c2c1C	3%
O=C(Cc1cc(=O)[nH]c(=O)[nH]1)NCCO	-1%
COc1ccc(N=Cc2c(Nc3ccc(Cl)cc3)nc3c(C)cccn3c2=O)cc1	49%
COc1ccc(-n2nc3c(c2NC(=O)C24CC5CC(CC(C5)C2)C4)CS(=O)C3)cc1 (configuration not stated)	2%
(more compounds)
SMILES	Mtb growth
Cc1nc2sc(C(c3ccc(Cl)c(Cl)c3)N3CCN(C(=O)c4ccco4)CC3)c(O)n2n1 (configuration not stated)	9%
CC(=O)CSc1nc2c(c(=O)[nH]c(=O)n2C)n1CCCc1ccccc1	2%
COc1ccc(C2NC(=O)NC3=C2C(=O)N(Cc2ccccc2)C3)cc1 (configuration not stated)	-6%
NS(=O)(=O)c1ccc(N=C2NC(=O)C(CC(=O)O)S2)cc1 (configuration not stated)	-3%
COCCn1c(SCC(=O)NCC2CCCO2)nc2c([nH]c3ccccc32)c1=O (configuration not stated)	-8%
CCOc1ccc(-c2c3c(nc4sc(C(=O)Nc5nccs5)c(N)c24)CCCC3)cc1	23%
CCN1CCN(c2nc3c(c(=O)[nH]c(=O)n3C)n2CCSc2nc3ccccc3s2)CC1	-2%
CCCC(=O)Nc1scc2c(C(=O)OCC)nn(-c3ccc(F)cc3)c(=O)c12	7%
COc1ccc(NC(=O)NC(=O)C(F)(F)F)c(OC)c1	1%
CC(=O)c1cccc(N/C=C(\C#N)c2nc(-c3cc4ccccc4oc3=O)cs2)c1	2%
Cc1nnc(NC(=O)C2CC2)s1	10%
Cc1c(C)n2c(SCC(=O)Nc3ccc(F)cc3F)nnc2[nH]c1=O	-7%
Cc1ccc(C)c(-c2csc(NC(=O)c3ccc(S(=O)(=O)N4CCCCCC4)cc3)n2)c1	58%
Cc1cc(=O)oc2cc(OC(C)C(=O)NC3CCCC3)ccc12 (configuration not stated)	6%
Cc1cccc(OCc2ccc(C(=O)Nc3ccc(S(N)(=O)=O)cc3)o2)c1	-6%
CCOC(=O)c1c(NC(=O)c2cccc(C(F)(F)F)c2)sc2c1CC(C)(C)NC2(C)C	9%
CCS/C(N)=N/N=C/c1ccc(O)c(OC)c1	4%
CC(C)Nc1ncnc(N)c1[N+](=O)[O-]	1%
Cc1cccc(CS(=O)(=O)Nc2ccc3c(c2)C(=O)Nc2cc(C)ccc2O3)c1	7%
O=C(CSc1ccc2nnc(-c3ccc(F)cc3)n2n1)Nc1nc2ccccc2s1	-1%
COc1ccc(C2=C/C(=C(\C#N)c3nc4ccccc4[nH]3)c3cc(C)ccc3O2)cc1	6%
O=C(c1ccc([N+](=O)[O-])cc1Cl)N1CCN(c2ccc(N3CCCCCC3)nn2)CC1	8%
Cc1ccc(Cc2cnc(NC(=O)CNc3ccc(C)c(C)c3)s2)cc1	-1%
